Mtb betalactam – beta-lactam sensitization of Mtb H37Rv. 330,000 compounds, 0.27% hits. AID 434955. inhibition, % at 25 µM. M. tuberculosis H37Rv growth with meropenem, percent inhibition; hits of this screen are not shown here;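 active = about 74% or more and at least 40 points above the plate without the antibiotic, then above 30% in a dose series; inconclusive = first-round hits that could not be retested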;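 also: growth measured after seven days incubation then overnight dye step; 0% = bacteria only wells and 100% = bacteria with antibiotic; twin plates without the antibiotic show which effects depend on it; some results filed as inactive read as strong as hits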
Mtb growth – M. tuberculosis H37Rv growth inhibitors, H37Rv strain (AID 1626); one-dose inhibition, % at 10 µM; IC50 in µM for titrated hits; 220,000 compounds, 0.95% hits; M. tuberculosis H37Rv growth inhibition; higher % means a stronger effect;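 active = confirmed in a dose series; inconclusive = inhibition above 80% but not taken into the dose series; inactive = below 80% or under 30% at every dose of the series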;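 also: bacteria incubated seven days before Alamar blue readout; 0% = bacteria only wells and 100% = bacteria with antibiotic wells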
Arbovirus inh – antivirals against arbovirus infection; arbovirus infection cell-based antiviral screen; inhibition, % at 10 µM; 200,000 compounds, 0.37% hits; AID 1251;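 active = inhibition from about 30%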;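 also: bluetongue infection of BSR cells; cell survival read as ATP light after 72 h; 0% = infected wells without compound and 100% = uninfected wells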
RecA intein inh – blocks M. tuberculosis RecA intein splicing. cell-free RecA intein splicing, fluorescence. P9WHJ3. AID 2221. 290,000 compounds, 0.75% hits. inhibition, %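 (about 9 µM by stock and volumes)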; in the data active = inhibition above about 30%; inconclusive = no clear call, values can overlap the other calls;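 also: 0% = vehicle wells and 100% = reference inhibitor control wells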
Target sequence (P9WHJ3 whole entry, looked up): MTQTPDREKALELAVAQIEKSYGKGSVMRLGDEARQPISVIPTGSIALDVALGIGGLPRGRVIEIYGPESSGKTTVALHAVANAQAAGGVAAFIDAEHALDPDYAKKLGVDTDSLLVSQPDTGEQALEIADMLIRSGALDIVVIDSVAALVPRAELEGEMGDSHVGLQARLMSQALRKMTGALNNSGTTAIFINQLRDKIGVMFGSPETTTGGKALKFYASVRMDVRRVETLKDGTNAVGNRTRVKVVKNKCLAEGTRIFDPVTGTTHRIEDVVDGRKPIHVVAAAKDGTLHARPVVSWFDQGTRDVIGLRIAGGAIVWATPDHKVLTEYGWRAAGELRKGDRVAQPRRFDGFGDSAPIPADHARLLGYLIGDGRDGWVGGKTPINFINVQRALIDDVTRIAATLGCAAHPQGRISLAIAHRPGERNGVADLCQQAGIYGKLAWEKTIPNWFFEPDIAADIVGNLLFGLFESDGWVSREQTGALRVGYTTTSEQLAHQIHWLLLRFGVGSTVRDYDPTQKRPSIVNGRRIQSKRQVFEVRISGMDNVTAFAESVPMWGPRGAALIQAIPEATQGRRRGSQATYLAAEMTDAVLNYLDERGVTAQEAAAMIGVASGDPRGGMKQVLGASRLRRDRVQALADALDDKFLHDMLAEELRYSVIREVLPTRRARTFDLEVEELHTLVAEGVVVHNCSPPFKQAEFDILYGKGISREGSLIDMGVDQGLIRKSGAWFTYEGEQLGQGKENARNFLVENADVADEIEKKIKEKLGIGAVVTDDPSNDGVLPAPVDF
YopH inh – YopH (Yersinia) phosphatase inhibition; fluorescence Ex485/Em525; inhibition, %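 (about 10 µM by stock and volumes)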; AID 898; 140,000 compounds, 0.16% hits;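 active = inhibition of 50% or more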;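 also: controls were vehicle for no effect and minimum signal wells for full effect; inactives centre near -20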
Arbovirus inh repeat – recorded beside Arbovirus inh, whose call it bears; inhibition, %; measured here: 10K subset replicate screen; many hits read low in the repeat;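 first of two repeat runs on a subset; 0% = infected and 100% = uninfected wells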
An asterisk follows results filed as active; ? = inconclusive; · = no result given.

SMILES | Mtb betalactam | Mtb growth | Arbovirus inh | RecA intein inh | YopH inh | others
O=S1(=O)C=CC(c2ccccc2)C1 (stereo unspecified) | -2 | 0% | · | 3.5 | ·
O=C(O)c1cn(C2CCCCC2)c2ccccc2c1=O | 9 | -2% | · | -0.6 | ·
CCC(C(=O)NCCc1c[nH]c2cc(OC)ccc12)c1ccccc1 (stereo unspecified) | -4 | · | · | 0.0 | ·
CCn1cc(C(=O)N[C@@H](CCSC)C(=O)NC(C)(C)CO)c(=O)c2cc3c(cc21)OCO3 | -2 | · | · | -0.4 | ·
COC(=O)[C@]12OC[C@]34C([C@@H](O)[C@@H]1O)[C@]1(C)CC(=O)C(O)=C(C)[C@@H]1C[C@H]3OC(=O)[C@H](O)[C@@H]24 (stereo partly specified) | 3 | -8% | · | -2.1 | ·
CO[C@H]1O[C@@H]2O[C@@]3(C)CC[C@H]4[C@H](C)CC[C@@H]([C@H]1C)[C@@]24OO3 | -6 | 0% | · | -3.0 | ·
CCCOc1ccccc1NC(=O)c1ccc(N)cc1 | 89 | 2% | -8 | -1.6 | 7
COc1ccc(C(C)=O)cc1COc1ccc(Cl)cc1Cl | 5 | 13% | · | -2.4 | ·
Cc1cc(C)cc(OCC(=O)N(Cc2ccccc2)C2CCS(=O)(=O)C2)c1 (stereo unspecified) | 2 | · | · | 1.0 | ·
CCc1nc(-c2ccc(-c3ccc(OC)cc3)nc2OC)no1 | 81 | -11% | -9 | -2.4 | -5
CCC(C)NC(=O)c1cc(C)no1 (stereo unspecified) | -2 | -2% | 12 | 0.8 | 0
COc1ccc(-c2ccc(SCC(=O)NC3CCCC3)nn2)cc1OC | ? | · | · | 4.2 | ·
Cc1cccc(CC2CC(=O)N(c3ccc([N+](=O)[O-])cc3)C2=O)c1 (stereo unspecified) | -6 | · | · | 2.1 | ·
COc1ccc(N2C(=O)/C(=C/c3ccc(OC)c(OC)c3)C(=O)NC2=S)cc1 | -7 | · | · | -0.6 | ·
CCOC(=O)N1CCC(Nc2c(NCCCN(CC)c3cccc(C)c3)c(=O)c2=O)CC1 | -3 | -1% | -4 | 3.2 | -31
O=C(O)CCCCCCNC(=O)c1cncc(O)c1 | -3 | -12% | 0 | 1.4 | ·
CCCCOc1cccc(/C=N/NC(=O)c2csc(C)c2C)c1 | 6 | -5% | -5 | 1.2 | -1
C=C[C@@]1(C)CC(=O)[C@]2(O)[C@@]3(C)[C@@H](O)CCC(C)(C)[C@@H]3[C@H](OC(C)=O)[C@H](O)[C@@]2(C)O1 | -5 | -4% | · | -0.6 | ·
O=C(N/N=C/c1ccncc1)C1C2CCCCCCC21 (stereo unspecified) | 1 | -7% | -1 | 0.1 | 10
N#Cc1c(-c2ccccc2)nc(SCC(=O)N2c3ccccc3Sc3ccccc32)[nH]c1=O | -6 | -11% | · | 44* | ·
COc1ccc2c(c1)[nH]c1c(=O)n(/N=C/c3ccc(OC)c(CN4CCCC4)c3)cnc12 | -2 | -3% | · | 4.4 | ·
COc1ccccc1Sc1ccccc1CC(C)N (stereo unspecified) | 3 | 1% | -22 | 3.9 | -31
CC12C=CC(=O)C=C1CCC1C3CCC(O)(C(=O)CO)C3(C)CC3OC312 (stereo unspecified) | 8 | -6% | 14 | -2.2 | ·
O=C1CC(c2ccccc2)NC(=O)N1 (stereo unspecified) | 25 | -5% | 5 | -2.8 | -33
C=COCCCNc1ncnc2sc(-c3ccccc3)cc12 | 47 | · | · | 5.1 | ·
SMILES | Mtb betalactam | Mtb growth | Arbovirus inh | RecA intein inh | YopH inh | others
O=C(CN1CCCCCC1)Nc1ccc(Br)cc1 | -18 | 2% | 13 | -4.6 | -16
COc1ccc([C@@H]2[C@@H]3C(=O)N(C(C)(C)C)C(=O)[C@@H]3[C@]3(Cc4ccccc4)C(=O)N(c4ccccc4)C(=O)N23)cc1 | -11 | · | · | -1.6 | ·
O=C(C1=C[C@@H](C2CC2)C[C@@H](OCCCCO)O1)N1CCOCC1 | -9 | -1% | 1 | 0.6 | ·
O=C(N/N=C(/c1ccccc1)c1ccncc1)c1ccc2c(c1)OCO2 | 2 | -4% | -4 | -2.7 | -26
CC1CCN(c2ccc(C(=O)NCCc3ccccc3)cn2)CC1 | 14 | 5% | -11 | 1.3 | -21
CCOc1ccc(C(=O)N2CCN(c3cccc(C)c3C)CC2)cc1 | 22 | 4% | -6 | 6.7 | -28
O=C(NCCn1cc(SCC(=O)N2CCOCC2)c2ccccc21)c1c(F)cccc1F | -1 | 2% | -6 | -0.5 | ·
CS(=O)(=O)N(CC(=O)NCC1CCCO1)c1cccc(Cl)c1 (stereo unspecified) | -2 | -4% | -2 | -0.2 | ·
Nc1ncn(C23CC4CC(CC(C4)C2)C3)n1 | -6 | -9% | 3 | -1.9 | -22
Cc1ccc(C(=O)NC(=S)N(C)C2CCCCC2)cc1Br | 78 | · | · | -2.0 | ·
O=S(=O)(c1ccc(Cl)cc1)N1CN2CCN(C2)C1 | -7 | -5% | -1 | 2.6 | -69
COc1cccc(C(=O)NNC(=O)CCC(=O)O)c1 | -5 | · | · | -1.3 | ·
Cc1ccc(O)c(C(=O)c2cnc3c(c2)c(C)nn3-c2ccccc2)c1 | 23 | 8% | 1 | 4.4 | -25
COc1cc([N+](=O)[O-])ccc1NC(=S)NCc1ccccn1 | -2 | -5% | 0 | 1.8 | -14
CCC(=O)Nc1cccc(C(=O)/C=C/c2ccccc2)c1 | 100 | 22µM* | -40 | -2.0 | -43
S=C(NCc1ccccc1)NCc1ccccc1 | 8 | -3% | 3 | 2.9 | -3
CCc1ccccc1NC(=O)CN(C)C(=O)Cn1cc(C(F)(F)F)cc(Cl)c1=O | 10 | 10% | 1 | -2.2 | ·
CCN(CC)S(=O)(=O)c1ccc(NC(=O)c2ccc(Sc3nncn3C)c([N+](=O)[O-])c2)cc1 | -3 | 7% | 0 | -0.6 | -32
CN1CCN(C(=S)SCC(=O)N2CCCc3ccccc32)CC1 | -10 | · | · | 0.7 | ·
Cc1ccnc(N2CCC(C(=O)NNC(=O)c3ccccc3)CC2)n1 | 12 | -5% | -6 | -1.8 | -6
NC(=O)CCN1CCN(C(=O)c2ccc3nc(Cc4cccc(Cl)c4)oc3c2)CC1 | -6 | · | · | 1.2 | ·
O=C(COC(=O)/C=C/c1ccc2c(c1)OCO2)Nc1ccccc1 | 84 | 60% | -4 | 1.1 | ·
COC(=O)CC1COc2ccccc2N1C(=O)c1ccc(OC)cc1 (stereo unspecified) | 3 | -5% | 13 | 1.4 | -38
CCN1C(=O)N[C@@H](c2cccc(C(F)(F)F)c2)[C@@H](C(=O)OC)[C@H]1C | -3 | -10% | · | 1.4 | ·
O=C(CCN1C(=O)C2C3C=CC(C4CC34)C2C1=O)Oc1cccc2cccnc12 (stereo unspecified) | 100 | ? | 14 | 1.5 | -3
SMILES | Mtb betalactam | Mtb growth | Arbovirus inh | RecA intein inh | YopH inh | others
CCN(CC)C(=O)Cn1cc(S(=O)(=O)CC(=O)Nc2ccc3c(c2)OCCO3)c2ccccc21 | -6 | 5% | -1 | -1.2 | ·
Cc1ccc(-c2nnc3ccc(SCC(=O)NCc4ccco4)nn23)cc1 | -1 | -4% | 2 | -1.4 | -3
O=C(Nc1ccccc1Cl)c1cccc(NC(=O)c2cccs2)c1 | 2 | · | · | 3.4 | ·
COc1ccc(CN2CCN(c3ccccn3)CC2)c(OC)c1 | -4 | 5% | 1 | 0.2 | -45
O=C(NNS(=O)(=O)c1ccc(F)cc1)c1ccccc1O | 8 | · | · | -0.3 | ·
CC1(C)Cc2c(C#N)c(NCCO)nc(-c3ccco3)c2CO1 | 2 | -10% | · | -43 | ·
Nc1nc(NCc2ccccc2)nc(-c2ccccc2)n1 | -1 | 6% | -17 | 3.2 | -127
COc1ccc(OCC(=O)N2CCN(Cc3nc4cc([N+](=O)[O-])ccc4n3C)CC2)cc1 | 4 | 9% | -4 | 0.4 | -4
O=C(NC1CCCCC1)c1ccc2c(=O)n(CC3CCCO3)c(=O)[nH]c2c1 (stereo unspecified) | -4 | -3% | 0 | -1.6 | -6
O=C(Nc1ncc(Cc2ccccc2)s1)C1=NCCN1 | 96 | 12µM* | -4 | -7.7 | ·
Cc1c(C(=O)N2CCOCC2)oc2c1C(=O)CC(C)(C)C2 | 0 | -3% | 0 | -1.6 | -36
CCOc1cc(/C=N/NC(=O)CNc2cccc(C)c2)ccc1OC(=O)c1ccccc1 | -6 | -2% | -2 | 6.7 | -4
CCOc1ccccc1Nc1cc(C)nc2nc(C)nn12 | -9 | -10% | -5 | -0.3 | -28 | Arbovirus inh repeat=-2
COc1ccc(C(=O)O/N=C(/C(N)=O)P(=O)(OC(C)C)OC(C)C)cc1 | -2 | -3% | · | -6.2 | ·
CN(C)c1cc(NC(=O)CNC(C)(C)C)c2ccccc2n1 | 2 | -2% | · | -0.7 | ·
Cc1cc(C)c2c3c(oc2n1)C(=O)N(c1cccc(Cl)c1)CC(=O)N3 | -1 | 3% | · | -0.4 | ·
CCOc1cc(/C=C2\C(=O)ON=C2C)ccc1OCc1ccccc1 | 12 | 6% | -40 | 0.0 | -13
O=C1Nc2ccccc2C1(O)c1ccccc1O (stereo unspecified) | -6 | · | · | 2.3 | ·
c1ccc(CCn2cnc3ccccc32)cc1 | -3 | -1% | 7 | -0.5 | ·
COc1cccc(/C=N\NC(=O)Cn2nnc3ccccc32)c1O | 12 | 0% | -16 | 1.5 | ·
OCC1(Cc2ccccc2F)CCCN(CCc2ccccc2)C1 (stereo unspecified) | 9 | · | · | -3.8 | ·
CCc1ccc(S(=O)(=O)Nc2ccc(Br)cn2)cc1 | -1 | · | · | -3.5 | ·
O=C(NNS(=O)(=O)c1ccccc1[N+](=O)[O-])c1ccccc1Cl | 12 | -3% | -4 | 4.4 | ·
Cc1ccc(/C=C(\NC(=O)c2ccccc2)C(=O)NCC2CCCO2)o1 (stereo unspecified) | 5 | 0% | 3 | -2.7 | ·
O=c1cc(CSc2nnc3ccccn23)c2c(ccc3ccccc32)o1 | 2 | -1% | 7 | -4.1 | -41
SMILES | Mtb betalactam | Mtb growth | Arbovirus inh | RecA intein inh | YopH inh | others
Cc1[nH]c(=O)[nH]c(=O)c1NC(=O)CSc1ncccc1-c1nc2ccccc2[nH]1 | -18 | -1% | 9 | -3.2 | 5
CC(=O)N(C)c1ccc(OCC(O)CN(c2ccccc2C)S(=O)(=O)c2ccc(C)cc2)cc1 (stereo unspecified) | -24 | · | · | 6.2 | ·
Cc1cc(C(=O)CS(=O)(=O)c2ccc(F)cc2)cc(C)c1OC(=O)N(C)C | -6 | -4% | -1 | 8.9 | ·
O=C1OC(c2ccc3c(c2)OCO3)N(C(=O)c2ccc(Cl)c(Cl)c2)c2ccccc21 (stereo unspecified) | 1 | 5% | 26 | -1.8 | -27
Cc1ccc(Cl)cc1N1CCN(C(=O)C2CCN(c3nnc(-n4cccc4)s3)CC2)CC1 | ? | ? | -17 | 1.1 | -38 | Arbovirus inh repeat=-4
COc1ccccc1NS(=O)(=O)c1ccc(C)c(C(=O)NCC(c2ccco2)N2CCCCC2)c1 (stereo unspecified) | -17 | · | · | 0.4 | ·
Cc1ccc(-c2nc(N)n(C(=O)c3cccs3)n2)cc1 | 2 | 3% | 0 | -0.9 | ·
O=C(Cn1c(-c2ccccc2)c[n+]2ccsc12)c1ccccc1 | -8 | 3% | -3 | -0.3 | ·
N#Cc1cccnc1N1CCN(C(=O)c2ccc3c(c2)S(=O)(=O)c2ccccc2C3=O)CC1 | -5 | -4% | · | -0.5 | ·
O=C1C(=O)N(Cc2cccnc2)C(c2cccc(F)c2)/C1=C(/O)c1ccc2c(c1)OCO2 (stereo unspecified) | -2 | · | · | 0.1 | ·
Cc1nn(C)c(C)c1/C=C(/C(=O)C(C)C)n1cncn1 | -7 | -4% | · | 1.1 | ·

Seven records picked at random from those above, as already listed:
SMILES | Mtb betalactam | Mtb growth | Arbovirus inh | RecA intein inh | YopH inh | others
O=C(Cn1c(-c2ccccc2)c[n+]2ccsc12)c1ccccc1 | -8 | 3% | -3 | -0.3 | ·
O=C1C(=O)N(Cc2cccnc2)C(c2cccc(F)c2)/C1=C(/O)c1ccc2c(c1)OCO2 (stereo unspecified) | -2 | · | · | 0.1 | ·
COc1ccccc1NS(=O)(=O)c1ccc(C)c(C(=O)NCC(c2ccco2)N2CCCCC2)c1 (stereo unspecified) | -17 | · | · | 0.4 | ·
CC(=O)N(C)c1ccc(OCC(O)CN(c2ccccc2C)S(=O)(=O)c2ccc(C)cc2)cc1 (stereo unspecified) | -24 | · | · | 6.2 | ·
N#Cc1cccnc1N1CCN(C(=O)c2ccc3c(c2)S(=O)(=O)c2ccccc2C3=O)CC1 | -5 | -4% | · | -0.5 | ·
Cc1cc(C(=O)CS(=O)(=O)c2ccc(F)cc2)cc(C)c1OC(=O)N(C)C | -6 | -4% | -1 | 8.9 | ·
Cc1nn(C)c(C)c1/C=C(/C(=O)C(C)C)n1cncn1 | -7 | -4% | · | 1.1 | ·

Assay outcomes deposited in PubChem by several laboratories.

Not all compounds are listed; rates above refer to the full screens.
